Screening results deposited in PubChem BioAssay by National Center for Advancing Translational Sciences (NCATS).
miR-21 reporter = qHTS Assay for Modulators of miRNAs and/orActivators of miR-21; 340,000 tested, under 10 active; AID 2288, 2010; Potency, µM (series often up to 38.3 µM), for inactives: at the highest dose reporter change, positive = more light; HeLa miR-21 FLuc reporter, luciferase, 48 h; active = well fitted rising curve with a large enough effect; inconclusive = small, poorly fitted or top-dose-only effect; inactive = no such curve, though single readings can be large or run the other way;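 further: % of control where 0% means no effect; miR-21 action dims this reporter so a rising signal means less miR-21 action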
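Using DMEM plus 10% FBS, HeLa miR-21-FLuc cells are incubated with test compounds (final up to about 40uM) for 48 hours; firefly luciferase signal is then imaged following reagent-mediated lysis.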
Rango complex inh = qHTS Assay for Inhibitors of Rango (Ran-regulated importin-beta cargo) - Importin beta complex formation | Importin subunit beta-1 (Homo sapiens), Q14974 | Rango CFP/YFP FRET sensor + importin beta, 45 min | Potency, µM (top dose mostly 92.2 µM), without a hit: top-dose inhibition of complex formation | 340,000 compounds, 0.031% hits; active = rising FRET ratio curve, often small or poorly fitted; inconclusive = mostly compound fluorescence or quenching in the first reads; inactive = flat curves in all reads;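 further: potency means the concentration at half of the fitted maximal effect; 0% = DMSO wells and 100% = buffer wells lacking importin beta; nearly all actives have a fitted effect of over 15% in size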
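FRET biosensor Rango (snurportin 1 IBB between N-terminal EYFP and C-terminal Cerulean), 50 nM in PBS/1 mM DTT/0.02% Tween-20/0.1% BSA, preincubated 5 min RT with compound; 0.125 microM importin beta added, 45 min RT, CFP/YFP FRET ratio read.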
Rango dissoc inh = qHTS Assay for Inhibitors of RanGTP induced Rango (Ran-regulated importin-beta cargo) - Importin beta complex dissociation; Snurportin-1 (Homo sapiens) + GTP-binding nuclear protein Ran (Homo sapiens) + Importin …; Biochemical FRET Rango-importin beta, RanGTP-induced dissociation; Potency, µM (highest dose often 46.1 µM), inactives show top-dose activity change, negative = inhibition; 340,000 compounds, 0.071% hits; AID 540253, 2011; active means falling FRET ratio curve, often poorly fitted, with flat reads before Ran was added; inconclusive means other falling curves, or compound fluorescence or quenching; inactive means flat or rising ratio curve;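 further: potency means the concentration at half of the fitted maximal effect; % of control where 0% means no effect; nearly all actives have a fitted effect of over 45% in size; -100% = wells without RanGTP and RCC1; the record marks most hits as doubtful in a second field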
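Two FRET readings bracket the reaction: one 5 min after compound meets Rango–importin beta, another 45 min after RanGTP-RCC1 (0.6 uM Ran, 0.2 uM RCC1, 2 mM GTP) is added. Only the second defines inhibition.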
GLA inh pH 4.5 = qHTS Assay for Inhibitors of Human alpha-Galactosidase at pH 4.5; Alpha-galactosidase A (Homo sapiens), P06280; purified enzyme, 4-MU-alpha-Gal fluorescence, pH 4.5; activity change, negative = inhibition, % at 105 µM; 230,000 tested, under 10 active; AID 1467, 2008; inconclusive = small, poorly fitted or top-dose-only inhibition, or a rising curve; inactive = flat fitted curve, though single readings scatter; no compound was filed as active;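 further: 0% = full activity with enzyme and -100% = basal without enzyme; dose as in the result columns while the protocol names 77 µM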
Target sequence (P06280 whole entry, looked up): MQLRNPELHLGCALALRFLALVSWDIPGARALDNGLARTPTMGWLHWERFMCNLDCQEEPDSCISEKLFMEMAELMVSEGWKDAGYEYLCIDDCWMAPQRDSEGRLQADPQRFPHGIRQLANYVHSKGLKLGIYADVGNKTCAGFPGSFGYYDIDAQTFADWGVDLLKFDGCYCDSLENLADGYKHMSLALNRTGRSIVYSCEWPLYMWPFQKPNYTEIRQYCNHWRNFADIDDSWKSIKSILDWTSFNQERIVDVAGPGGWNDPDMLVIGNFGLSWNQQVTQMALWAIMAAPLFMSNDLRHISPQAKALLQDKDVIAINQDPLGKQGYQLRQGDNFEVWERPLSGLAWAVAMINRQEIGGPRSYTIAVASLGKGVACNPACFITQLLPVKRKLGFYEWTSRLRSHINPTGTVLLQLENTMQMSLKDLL
Active calls of the source: *; ? = inconclusive; nt = not tested or not shown; & = joins results of further samples.

miR-21 reporter | Rango complex inh | Rango dissoc inh | GLA inh pH 4.5 | Molecule
-20.8% | 0.6% | -1.5% | 6.5 | CCOC(=O)c1nnc(-c2ccccc2)[nH]c1=O
-5.7% | -4.2% | 9.9% | 0.1 | CCCCC(c1nnnn1CCOC)N1CCN(c2cccc(OC)c2)CC1 (centres undefined)
4.9% | nt | nt | 0.3 | Cc1ccccc1Nc1nnc(SCc2nc3ccccc3c(=O)[nH]2)s1
-3.9% | 0.4% | 16.5% | nt | CC1Cc2ccccc2N1Cc1cccc([N+](=O)[O-])c1 (centres undefined)
4.2% | -4.8% | ? | -5.0 | CCOc1ccccc1N1CCN(C(=S)NCc2ccc(Cl)cc2)CC1
-5.7% | 0.9% | -1.6% | -2.0 | Clc1ccc(Cl)c(OCc2cc(-c3ccccc3Cl)on2)c1
-2.8% | 2.2% | 7.4% | 3.4 | CCOc1ccc(CC(=O)NCc2cn3c(C)csc3n2)cc1
20.9% | 4.7% | -24.8% | -7.2 | COc1ccc(C2/C=C\CN(C(=O)C3CCCC3)[C@H](Cc3ccccc3)C(=O)N2Cc2ccc(F)cc2)cc1 (some centres undefined)
-11.8% | 2.3% | 0.4% | -1.8 | CCOc1nc(OCC)nc(N2CCC(C)CC2)n1
-3.4% | 1.0% | 32.7% | -3.8 | CCC(=O)NCCc1c[nH]c2ccccc12
5.9% | 0.2% | 20.6% | 2.3 | CCOC(=O)c1[nH]c2ccc(OC)cc2c1NC(=O)CN1CCc2ccccc2C1
0.7% | nt | nt | -0.4 | Cc1cnc(C(=O)Nc2ccc(C(=O)N(C)C3CCCCC3)cc2)cn1
nt | -0.1% | -7.3% | nt | COC(=O)[C@]1(C)N[C@H](CN(C)S(=O)(=O)c2ccc(F)cc2)[C@@H]2C(=O)N(Cc3ccccc3)C(=O)[C@@H]21
-53.2% | ? | ? | nt | Cc1cccc2c1-c1sc(C(=O)Nc3cccnc3)cc1CO2
-0.3% | -0.7% | -4.7% | -0.6 | Fc1ccc(-c2[nH]ncc2CN(CC2CCC2)CC2CCCO2)c(F)c1 (centres undefined)
-20.0% | ? | ? | -1.4 | Oc1nc(Nc2cccc(Cl)c2)sc1/C=C1\C=Nc2ccccc21
-2.2% | -2.2% | -9.4% | 3.2 | Cn1cccc1Cc1nnc(SCC(=O)NC2CCCC2)n1CCc1ccccc1
3.5% | -0.9% | -3.4% | -5.6 | CCSc1nnc(NC(=O)CSc2nnc(C)c(=O)n2N)s1
-1.1% | -0.1% | 11.6% | 2.8 | C/C(N)=C(/C#N)C(=O)COC(=O)CNS(=O)(=O)c1ccc(C)cc1
3.4% | 1.1% | 3.4% | nt | COc1ccc(CC(=O)NNS(=O)(=O)c2cccc([N+](=O)[O-])c2)cc1OC
1.8% | -0.2% | -17.0% | -9.3 | CC(=O)c1c(C)n(-c2ccccc2)c2ccc(O)cc12
17.8% | 1.1% | 5.4% | -4.6 | CC(C)(C)c1ccc(OC(=O)Nc2ccc(O)c(C(=O)O)c2)cc1
? | 4.5% | -10.0% | 2.7 | CC(C)(C)c1ccc(C2CC2C(=O)N/N=C\c2ccc[nH]2)cc1 (centres undefined)
1.6% | 1.9% | -3.9% | -7.0 | CCc1ccccc1N1C(=O)C2CC=CCC2C1=O (centres undefined)
-0.7% | 0.7% | 9.0% | -0.9 | COCCNS(=O)(=O)c1ccc2c(c1)C(=O)c1cc(S(=O)(=O)NCCOC)ccc1-2
0.4% | -1.9% | 0.5% | nt | NC(N)=NS(=O)(=O)c1ccc(NC(=S)NC(=O)Cc2ccc(Cl)cc2)cc1
-7.4% | ? | ? | -1.2 | CCCn1nc(NC(=O)CC(C)C)c2cc3ccccc3nc21
-0.8% | 0.6% | -6.9% | nt | O=C(CN1C(=O)CSC1=O)N1CCCC(Nc2ccc(F)cc2)C1 (centres undefined)
-33.8% | ? | -19.8% | nt | O=C(Cc1cccc2ccccc12)Nc1c(F)cccc1F
-10.2% | -3.7% | 11.3% | -7.4 | COc1ccc(/C=N/NC(=O)CSc2n[nH]c(=O)[nH]c2=O)cc1
-8.1% | 0.2% | 12.0% | 13.2 | c1cnc2c(c1)ncc1cscc12
-0.6% | 0.2% | -17.5% | -12.1 | CC1CCN(CC(=O)Nc2cc(C(F)(F)F)ccc2Cl)CC1
-2.2% | 3.9% | -13.4% | nt | COc1ccc(C(C(=O)NC(C)(C)C)N(CCc2ccc(OC)c(OC)c2)C(=O)CCC(=O)Nc2cc(C)on2)cc1 (centres undefined)
0.5% | 0.4% | -10.8% | nt | COc1cc(C(=O)n2cnc3ccccc32)c([N+](=O)[O-])cc1OC
-28.4% | -0.1% | 0.6% | 7.8 | CCCCOc1ccc(C(=O)NC)cc1
nt | 3.4% | 29.5% | nt | O=C(Cc1ccc(S(=O)(=O)N2CCOCC2)s1)N1CCN(S(=O)(=O)c2ccc(Cl)cc2)CC1
-10.6%&-22.5% | -3.0% | 23.1% | 1.0 | CC(C)CC(=O)Nc1cccc(-c2nc3ccccc3[nH]2)c1
-12.7% | 1.4% | 3.2% | -1.1 | Cc1ccc(NC(=O)C(=O)NN)cc1
-5.9% | -1.3% | -14.1% | 0.2 | Cn1ncc(Cl)c1C(=O)Nc1cc(C(F)(F)F)ccc1F
3.2% | -2.8% | -13.8% | nt | O=C(N=C1SC2CS(=O)(=O)CC2N1Cc1ccccc1)C1CCCCC1 (centres undefined)
-4.6% | -0.2% | 10.1% | nt | COc1ccc(NC(=O)C/C(C)=N/NC(=O)COc2ccc(OC)cc2)cc1
-3.3% | 3.0%&-0.1% | 6.7%&1.1% | 4.9 | Cc1nc2nc(CSc3nnc(C)s3)cc(=O)n2[nH]1
0.1% | -2.9% | 5.5% | nt | CCOC(=O)C1CCN(S(=O)(=O)c2ccc3c(c2)CC(C)N3C(=O)C2CCC2)CC1 (centres undefined)
0.3% | 1.5% | 6.6% | -2.5 | COc1ccc(C(C(=O)NC(C)C)N(C(=O)CCC(=O)Nc2nccs2)c2ccccc2F)cc1 (centres undefined)
-1.0% | -3.9% | -14.1% | nt | CN1CCN(C2CCCCC2NS(=O)(=O)c2ccccc2)CC1 (centres undefined)
-42.9% | -0.6% | -5.1% | nt | CSc1nc(O)c(N=Nc2ccc(F)cc2F)c(=O)[nH]1
-3.1% | 6.6% | 15.2% | 4.2 | COc1ccccc1CN(CC(=O)NCC1CCCO1)C(=O)CNS(=O)(=O)c1ccc(C)cc1 (centres undefined)
-29.2% | -4.7% | -8.2% | 3.3 | Cc1ccccc1N/N=C/c1ccc(N2CCOCC2)cc1
-0.5% | -0.3% | -7.7% | -1.8 | O=C(CSc1nc2ccccc2c(=O)n1-c1ccc(F)c(Cl)c1)Nc1cccc(S(=O)(=O)N2CCOCC2)c1
0.1% | -0.6% | 0.2% | -21.1 | Cn1ncc(C#N)c1/N=C/N1CCCC1
-8.7% | -0.5% | -5.2% | 6.2 | Cc1ccc(S(=O)(=O)N2CC=C(C(=O)NCc3ccccc3)CC2)cc1
-9.1% | -2.2% | 0.9% | -1.2 | Cn1cnnc1Sc1ccc(C(=O)OCC(=O)Nc2ccccc2)cc1[N+](=O)[O-]
nt | -0.7% | 12.8% | nt | Cc1cc(C)cc(C(=O)OCC(=O)Nc2ncccn2)c1
15.3% | 1.1% | -4.0% | -0.2 | Cc1cccc(CCNS(=O)(=O)c2ccc(S(=O)(=O)NC3CCCC3)cc2)c1
-26.2% | 6.0% | 24.3% | -0.2 | Cc1ccc2nc(SCC(=O)c3c[nH]c4ccccc34)[nH]c2c1
-26.2% | -2.5% | 12.4% | nt | O=C1NC(=O)/C(=C/c2cc3c(cc2Br)OCO3)S1
-15.6% | -1.4% | -1.1% | nt | COc1cc2[nH]c3c(OC)ncnc3c2cc1OC
-16.4% | -1.2% | 2.3% | -7.5 | Cc1ccc(-c2cccc(NC(=O)C3C4C=CC(C4)C3C(=O)O)c2)o1 (centres undefined)
-18.2% | 4.1% | 7.2% | nt | O=C(NNC(=S)Nc1ccc(Br)cc1)c1cccnc1
-1.9% | -2.0% | 2.0% | 7.6 | COCc1[nH]nc2c1C(c1sccc1C)C(C#N)=C(N)O2 (centres undefined)

Continued:
miR-21 reporter | Rango complex inh | Rango dissoc inh | GLA inh pH 4.5 | Molecule
-9.6% | -5.7% | -0.8% | 5.4 | OC(c1cccs1)c1nccc2ccccc12 (centres undefined)
nt | 0.9% | 11.9% | nt | O=[N+]([O-])c1ccc(F)cc1OCc1cccc(S(=O)(=O)N2CCOCC2)c1
-8.8% | ? | -9.2% | 1.8 | Cc1nc(SCC(=O)NCc2ccc3c(c2)OCO3)c(C#N)c2c1CCCC2
-0.2% | 13.4% | 12.1% | 5.4 | c1cc(C2CCCCC2)ccc1Oc1nc(N2CCOCC2)nc(N2CCOCC2)n1
-5.2% | -2.7% | -4.4% | nt | CCN(CC(=O)N1CCCC1)S(=O)(=O)c1ccc(OC)cc1
0.4% | 1.9% | 12.7% | 9.4 | CC1CC(C)CN(C(=O)C(NS(=O)(=O)c2ccc3c(c2)oc(=O)n3C)C(C)C)C1 (centres undefined)
-12.1% | -0.5% | -4.1% | -3.8 | COc1ccc(NC(=O)COC(=O)C2CC3C=CC2C3)cc1 (centres undefined)
-28.5% | 0.4% | 10.4% | 5.6 | O=C(N/N=C/C(Br)=C/c1ccccc1)C1CC1
-0.7% | -3.5% | 2.8% | 6.3 | CC(C)CCNC(=O)COC(=O)c1ccc(Br)o1
-1.9%&4.0% | 3.3% | -5.4% | -17.5&-13.6 | Cc1cc(NC(=O)Cn2c(=O)c3c(ncn3CCC(C)C)n(Cc3ccccc3)c2=O)no1
2.1% | -3.3% | -5.8% | -0.5 | CSc1nc2ccccc2n1CC(=O)Nc1ccc(C)c(C)c1
-1.9% | 7.6% | 14.0% | -22.6 | CCOC(=O)CCCNC(=O)c1cncc(O)c1
-1.7% | -2.2% | 1.9% | nt | NC(=O)c1ccc(NC(=O)CNC(c2ccccc2)c2ccccc2)cc1
-4.8% | 2.5% | -11.3% | 2.0 | CC(C)(C)c1nc(N2CCN(C(=O)c3ccco3)CC2)c2nnn(Cc3ccccc3)c2n1
-19.3% | 0.9% | 0.2% | -1.0 | C/C(=N/NC(=O)c1cc(C(C)C)[nH]n1)c1cccs1
16.0% | 1.2% | -4.1% | -6.9 | COc1cccc(CNc2ccc(S(N)(=O)=O)cc2)c1OCc1ccccc1F
-1.7% | 4.0% | 18.4% | -1.0 | Cc1cccc(C(=O)NC2CCN(S(=O)(=O)c3ccccc3)CC2)c1
0.1% | 0.5% | 0.3% | -0.6 | C#CCOCCOCCOCCNc1nc(N2CCN(C(=O)[C@H]([C@@H](C)CC)n3cc([C@@H](N)Cc4ccc(O)cc4)nn3)CC2)nc(N2CCN(C(=O)[C@H]([C@@H](C)CC)n3cc([C@@H](N)Cc4ccc(O)cc4)nn3)CC2)n1
18.4% | 2.3% | -10.8% | nt | Cc1nc2ccc(NS(=O)(=O)c3ccc(F)c(C)c3)cc2[nH]1
nt | 1.0% | -0.6% | nt | Nc1c(Cl)cc(-c2csc(N3CCCC3c3nc4cc(Cl)c(Cl)cc4n3CCCO)n2)cc1Cl (centres undefined)
2.7% | nt | nt | -3.7 | Cc1ccc2cc3c(N)c(C(=O)N4CC(=O)Nc5ccccc54)sc3nc2c1
-6.5% | -1.4% | -16.1% | -4.0 | O=c1c(Cl)c(N2CCN(c3ccccc3)CC2)cnn1C12CC3CC(CC(C3)C1)C2

Filtered by structure: those above containing a furan ring, fused or not (3)
miR-21 reporter | Rango complex inh | Rango dissoc inh | GLA inh pH 4.5 | Molecule
-16.4% | -1.2% | 2.3% | -7.5 | Cc1ccc(-c2cccc(NC(=O)C3C4C=CC(C4)C3C(=O)O)c2)o1 (centres undefined)
-0.7% | -3.5% | 2.8% | 6.3 | CC(C)CCNC(=O)COC(=O)c1ccc(Br)o1
-4.8% | 2.5% | -11.3% | 2.0 | CC(C)(C)c1nc(N2CCN(C(=O)c3ccco3)CC2)c2nnn(Cc3ccccc3)c2n1

A portion of the library; rates above refer to the full screens.
